Assay outcomes (PubChem BioAssay)
Vaccinia mCherry – inhibitors of vaccinia virus infection (mCherry reporter signal); AID 720579; Vaccinia virus mCherry reporter infection, fluorescence; about a quarter of the inactives have no number; Potency, µM (series often up to 36.5 µM), without a hit: at the highest dose activity change, negative = inhibition, most hits filed as inhibitors; actives 0.63% (n = 310,000); active = well fitted inhibition curve with a large enough effect; inconclusive = small, poorly fitted or top-dose-only effect; inactive = no such curve, though single readings can be large or run the other way; tested in A549 cells; further: nearly all actives have a fitted effect of over 35% in size; inactives centre near -10
VACV Venus inh – vaccinia inhibition (Venus reporter); Vaccinia virus Venus reporter expression, fluorescence; Potency, µM (top dose mostly 36.5 µM), for inactives: at the highest dose activity change, negative = inhibition, most hits filed as inhibitors; actives 0.46% (n = 330,000); AID 720580; active means well fitted inhibition curve with a large enough effect; inconclusive means small, poorly fitted or top-dose-only effect; inactive means no such curve, though single readings can be large or run the other way; tested in A549 cells; further: nearly all actives have a fitted effect of over 30% in size; inactives centre near -10
* hit, by the source's call; i = inactive; u = inconclusive; x = no result given; & = joins results of further samples; [ ] = remark or other dose. On the % scale 0 is the no-effect control and ±100 the full control effect; potency means the concentration at half of the fitted maximal effect.

Second line of a record: Vaccinia mCherry	VACV Venus inh
- Cc1ccc(C(O)c2ncc(-c3ccc4ccccc4c3)[nH]2)cc1 (centres undefined)
→ u	-25%
- O=C(NNC1=Nc2cccc3cccc1c23)c1ccccc1Br
→ u	-8%
- Cc1ccc(CN(C)C[C@@H]2OCc3cnnn3CCCC(=O)N([C@@H](C)CO)C[C@H]2C)cc1
→ i	-6%
- Cc1oc(-c2ccccc2NC(=O)c2ccccc2)nc1CNC(=O)C1CC(=O)OC12CCCCC2 (centres undefined)
→ 17%	12%
- Nc1nc(=O)n(C2OC(CO)C(O)C2O)cc1F (centres undefined)
→ 2µM*	-14%
- CC1CCCN(CCCNC(=O)c2ccc3c(c2)N(Cc2cccc(Cl)c2)C(=O)c2ccccc2S3(=O)=O)C1 (centres undefined)
→ -16%	-20%
- COc1cccc(C(=O)Nc2nnc(C3CCCO3)s2)c1 (centres undefined)
→ x	-14%
- COc1ccc(NC(=O)CCC(=O)N/N=C/c2ccc([N+](=O)[O-])s2)cc1
→ u	u
- COc1cc(C2C(C#N)=C(C)NC3=C2C(=O)CC(C)(C)C3)ccc1O (centres undefined)
→ -7%	2%
- O=C(Nc1ccnn1C1CCN(Cc2ccc(CO)o2)CC1)c1ccccc1
→ -14%	-5%
- COCCN(Cc1ccccc1)C(=O)c1cc(-c2ccc(OC)c(OC)c2)nc2ccccc12
→ -25%	-23%
- CC(=O)N1CCC(N(CCN2CCOCC2)C(=S)Nc2cc(C)ccc2C)CC1
→ -10%	1%
- NC(=O)N/N=C/c1c(F)cccc1F
→ -6%	-25%
- Cc1ccc(S(=O)(=O)N(C)C)cc1NC(=O)c1cc(=O)c2ccccc2o1
→ i	-11%
- Cn1c(=O)c2c(SCC(=O)NCC3CCCO3)nc(-c3cccc(F)c3)nc2n(C)c1=O (centres undefined)
→ 0%	-9%
- N=c1c(C(=O)NC2CCCC2)cc2c(=O)n3ccccc3nc2n1CCCN1CCOCC1
→ -6%	-3%
- CC1CCCCC1NC(=O)/C(C#N)=C/C=C/c1ccccc1[N+](=O)[O-] (centres undefined)
→ u	-9%
- CCC(=O)Nc1cccc(C(=O)OCc2cc(=O)n3nc(CC)sc3n2)c1
→ -17%	-12%
- COc1ccc(OC)c(N(CC(=O)Nc2ccc(NC(C)=O)cc2)S(C)(=O)=O)c1
→ -8%	2%
- CCN(CC)S(=O)(=O)c1ccc2oc(Nc3ccc(OC)cc3)nc2c1
→ u	-13%
- Cc1ccc2nc(Nc3ccc4[nH]c(=O)[nH]c4c3)c(-n3nc(C)cc3C)nc2c1
→ u	u
- CC(=O)/C=C1\N(C)c2ccc(C)cc2C1(C)C
→ -1%	24%
- CC(=O)Nc1cccc(-c2ccnc3c2CC(C)(C(=O)NCc2cccs2)O3)c1 (centres undefined)
→ 0%	u
- O=C(O)CCNc1ccc(NCCC(=O)O)c2c1C(=O)c1ccccc1C2=O
→ -9%	20%
- CCOC(CNc1ncnc2c1cnn2C)OCC
→ -4%	-5%
- Cc1ccc(CCNC(=O)CCn2c(=O)c3cccn3c3ccc(F)cc32)cc1
→ -2%&-5%	-24%&-11%
- CCc1ccc(N(CC(=O)NC(C)(C)CC)C(=O)CCC(=O)Nc2nccs2)cc1
→ -21%	-22%
- CC(C)N1CCC1(C)C(=O)Nc1ccc2cn[nH]c2c1 (centres undefined)
→ i	1%
- CC(C)(C)NC(=S)NC(=O)C12CC3CCC(CC(C3)C1)C2
→ -11%	-3%
- CCC(=O)N1CCc2cc(S(=O)(=O)CCC(=O)NCc3cccc(OC)c3)ccc21
→ -16%	-13%

Taken from above.
Vaccinia mCherry with `CC(=O)Nc1cccc(-c2ccnc3c2CC(C)(C(=O)NCc2cccs2)O3)c1` (centres undefined) reads 0%
VACV Venus inh with `CC(C)N1CCC1(C)C(=O)Nc1ccc2cn[nH]c2c1` (centres undefined) reads 1%

Going on with the list.
Second line of a record: Vaccinia mCherry	VACV Venus inh
- O=C(CC(Sc1n[nH]c(-c2ccccc2)n1)c1ccccc1)NCc1ccccc1 (centres undefined)
→ u	-8%
- O=C(COC(=O)c1ccc(Cl)c(S(=O)(=O)N2CCCCCC2)c1)NCc1ccccc1
→ i	-20%
- O=c1c2ccccc2nc(CSc2ncnc3nc[nH]c23)n1-c1ccc(Cl)c(Cl)c1
→ -7%	-19%
- CC(Cc1ccccc1)NC(=O)c1cc2ccccc2o1 (centres undefined)
→ -10%	-3%
- O=C(Nc1cc(Cl)ncn1)c1ccccc1
→ -16%[7.34 µM]	-2%[7.34 µM]
- CCCCCOCC1CC(C/C(C)=N/Nc2nc(-c3ccccc3)cs2)C(=O)O1 (centres undefined)
→ x	-4%
- COc1ccc(/C=C2\SC(N)=NC2=O)cc1
→ -24%	-12%
- O=C(COCc1ccccc1)N[C@@H](Cc1ccc(O)cc1)C(=O)O
→ i	11%
- COc1ccc(OC)c(S(=O)(=O)NCc2cc(-c3ccccc3)no2)c1
→ -12%	-4%
- CC(=Nc1ccccc1)C1=C(O)C(Cc2ccccc2)NC1=O (centres undefined)
→ -17%	u
- COc1cc(C(C2C(=O)CC(C)(C)CC2=O)C2C(=O)CC(C)(C)CC2=O)cc(OC)c1OC
→ -3%	-15%
- COc1ccc(-c2cc(C(F)(F)F)n3nc(C(=O)NCCN4CCOCC4)cc3n2)cc1
→ i	-23%
- CCOc1ccccc1/C=N/NC(=O)c1nnn(-c2nonc2N)c1CN1CCC(C)CC1
→ u	-5%
- CS(=O)(=O)N(CC(=O)Nc1ccc2c(c1)OCO2)Cc1ccc(Cl)cc1
→ x	-23%
- O=C1NCN(c2ccccc2)C12CCN(C(c1ccccc1OC(F)(F)F)c1nnnn1C1CCCCC1)CC2 (centres undefined)
→ 12%	-13%
- CCN(CC(=O)NCCc1ccccc1)S(=O)(=O)c1ccc(C)cc1
→ -18%	-11%
- O=C(Cn1cncn1)c1ccc(Cl)cc1
→ -4%	-2%
- COc1cc(NS(=O)(=O)c2cc(C(=O)N3CCN(C(C)=O)CC3)ccc2OC)cc(OC)c1
→ 0%	-6%
- COCCN(C(=O)CCCC(=O)Nc1ccccn1)C(C(=O)NC1CCCC1)c1ccc(C)cc1 (centres undefined)
→ 1%	1%
- CSc1ncnc2c1ncn2CCCN1CCN(c2ncccn2)CC1
→ -15%	-3%
- COc1cc(OC)nc(Nc2nc(C(N)Cc3ccc(Cl)cc3)cs2)n1 (centres undefined)
→ -25%	-24%
- N#CCCCCC#N
→ 17%	-5%
- O=C(Nc1ccccc1)N1CCC(O)(c2cccc(C(F)(F)F)c2)CC1
→ i	-10%
- O=C(COC(=O)c1ccccc1[N+](=O)[O-])Nc1cccnc1Cl
→ -11%	-6%
- Cc1cc(SCC(=O)c2ccccc2)nc(C)n1
→ x	-22%
- COCCCn1c(=S)[nH]c2sc3c(c2c1=O)CCCS3
→ 1%	2%
- CCC/C(=N\NC(=O)C1CCCC1)c1ccccc1
→ -12%	-7%
- Cc1ccccc1NC(=O)c1cc(C(=O)c2cc(Cl)ccc2O)cn(-c2ccccc2C)c1=O
→ u	u
- CC(C)(C)OC(=O)C[C@H]1C/C=C\C[C@@H](CC(=O)N[C@@H](CO)Cc2ccccc2)C(=O)NC[C@@H](c2ccccc2)OC1=O
→ i	-15%
- Cc1ccc(NC(=O)CNCc2ccccc2Cl)cc1S(=O)(=O)N(C)C
→ -2%	-14%
- O=C(NC1CCCCC1)c1ccc2c(c1)sc1nc(-c3ccc(F)cc3)cn12
→ -20%	-26%
- COc1cccc(N2C(=O)Nc3ccc(Br)cc3C2(O)C(=O)NCCCOC(C)C)c1 (centres undefined)
→ -9%	-8%
- CC(=O)c1cc2c(cc1NC(=O)CN1CCC(Cc3ccccc3)CC1)OCO2
→ i	-12%
- CCOC(=O)c1ccc(N2C(=O)c3n[nH]c(-c4ccco4)c3C2c2ccc(C(=O)OC)cc2)cc1 (centres undefined)
→ -14%	-22%
- Cc1ccc(-c2nnc(SCC(=O)N(C)C)nc2-c2ccc(C)cc2)cc1
→ -15%	5%
- CCOC(=O)C1C(C(=O)OC)=C(C2=CCCCC2)c2ccccc2N1S(=O)(=O)C(F)(F)F (centres undefined)
→ -10%	-11%
- COc1ccc(OC)c(NC(=O)c2cc(S(=O)(=O)N3CCCC3)cn2C)c1
→ 14%	-2%
- COc1cc(N)c(Cl)cc1C(=O)CCC1CCN(CCNS(C)(=O)=O)CC1
→ u	u
- N#Cc1ccc(OCc2c(-c3ccccc3)nnn2CC(=O)O)cc1
→ 8%	-8%
- CCOC(=O)CNC(=O)CSc1nnc(-c2ccccc2)c(-c2ccccc2)n1
→ -8%	-13%

Compounds from the list above that contain a cyano group (4):
Second line of a record: Vaccinia mCherry	VACV Venus inh
- COc1cc(C2C(C#N)=C(C)NC3=C2C(=O)CC(C)(C)C3)ccc1O (centres undefined)
→ -7%	2%
- CC1CCCCC1NC(=O)/C(C#N)=C/C=C/c1ccccc1[N+](=O)[O-] (centres undefined)
→ u	-9%
- N#CCCCCC#N
→ 17%	-5%
- N#Cc1ccc(OCc2c(-c3ccccc3)nnn2CC(=O)O)cc1
→ 8%	-8%

(listing goes on)
Second line of a record: Vaccinia mCherry	VACV Venus inh
- COc1ccc(N(C(=O)c2cccc(OC)c2OC)C2C=CS(=O)(=O)C2)c(OC)c1 (centres undefined)
→ -2%	-2%
- CC(=O)Nc1ccc(NS(=O)(=O)c2ccc3c(c2)CCCN3C(C)=O)cc1
→ -3%	1%
- Cc1cc(NC(=O)CSc2nnnn2-c2ccc(C(C)C)cc2)no1
→ -8%	-15%
- O=C(CCN1C(=O)c2ccccc2S1(=O)=O)Nc1cccc2ccccc12
→ -11%	-1%
- Cc1onc(-c2ccccc2)c1C(=O)N1CCOCC1
→ x	-2%
- COc1cc(Nc2cccc(-c3ccccc3)n2)cc(OC)c1OC
→ i	-3%
- Nn1c(SCc2ccc(F)cc2)nnc1-c1ccccn1
→ -8%[7.34 µM]	-10%[7.34 µM]
- O=C(NCCCCc1ccccc1)NC[C@@H]1CC[C@@H](Cc2ccc(-c3ccccc3)cc2)O1
→ u	u
- CCOc1ccc(OCCn2c(=S)[nH]c3c(N)ncnc32)cc1
→ -11%	-8%
- O=C(Cc1ccc(S(=O)(=O)N2CCOCC2)s1)Nc1nc2c(s1)CCCC2
→ x	-3%
- FC(F)(F)c1ccc(NC(=S)NC2CCCCC2)cc1
→ u	-27%
- COc1ccc(NC(=O)CC2C(=O)N(c3ccc(Cl)cc3)C(=S)N2NC(=O)c2cccc(F)c2)cc1 (centres undefined)
→ -29%	-12%
- COc1ccc(OC)c(NC(=O)c2cc(-c3ccc(Cl)s3)nc3ccccc23)c1
→ -4%	11%
- O=C(CC[C@H]1O[C@@H](n2ccc(=O)[nH]c2=O)[C@H](O)[C@@H]1O)NCC1CCCO1 (some centres undefined)
→ i	-3%
- CCC(=O)Oc1ccc(C2Nc3ccccc3-c3nnc(SC)nc3O2)cc1 (centres undefined)
→ -18%	-2%
- COc1ccc(-c2c(C)[nH]n3c(=O)c(Cc4ccccc4)c(C)nc23)cc1OC
→ -13%	-21%
- CCOc1ccc(CCNC(=O)CCCc2cc(-c3ccc(OCC)cc3)on2)cc1
→ -8%	-2%
- Cc1[nH]c2ccccc2c1C(=O)CN1CCN(c2ccc(Cl)cc2)CC1
→ -12%	-14%
- CC1(C)Cc2c(C#N)c(SCC(=O)c3ccccc3)nc(N3CCOCC3)c2CS1
→ -32%	-18%
- Cc1cccc2c(C(=O)n3cccn3)cc(-c3ccccc3Cl)nc12
→ -10%	7%
- CC(C)(C)Nc1nc(N)nc(Cl)n1
→ -2%	-11%
- Cc1cc(C)n(CC(=O)O)c(=O)c1[N+](=O)[O-]
→ i	-15%
- Nc1ccncc1Cl
→ i	-17%
- S=C1NC[C@H](CC2CCCCC2)N1CCCCC1CCCCC1
→ u	-29%
- Cn1c(N2CCCC2)nc2c1c(=O)[nH]c(=O)n2C
→ i	-9%
- c1ccc(Oc2c3ccccc3nc3ccccc23)cc1
→ -23%	u
- N#Cc1ccccc1CN1C(=O)S/C(=C/c2cccn2-c2cccc(C(=O)O)c2)C1=O
→ x	-4%
- O=S(=O)(c1cccc(-c2cn3ccccc3n2)c1)N1CCCC1
→ -14%	-6%
- OCC1(CCCc2ccccc2)CCN(Cc2cnc(N3CCOCC3)s2)CC1
→ -19%	-17%
- CC1CN(c2nc3ccccc3nc2SCC(=O)Nc2ccc(F)cc2)CC(C)O1 (centres undefined)
→ -11%	-19%
- Cc1ccc(NC(=O)Cn2c(=O)n(Cc3ccco3)c(=O)c3ccccc32)c(C)c1
→ 3%	1%
- O=C(NNC(=O)c1cccs1)c1ccc(Cl)cc1
→ i	-10%
- CCC(NC(=O)c1oc2ccccc2c1COC)c1ccc(OC)cc1 (centres undefined)
→ -11%	-5%
- COc1ccc(CCC(=O)NCc2ccc3c(c2)CCN3C(=O)c2ccccc2)cc1
→ i	-18%
- Fc1ccccc1-c1n[nH]c(=S)n1/N=C/c1c[nH]c2ccccc12
→ -14%	-27%
- O=C(c1ccccc1)c1ccc2nc(Nc3ccccc3Cl)c3nncn3c2c1
→ -2%	-3%
- C/C(=N\NC(=O)c1cccnc1)c1ccc(Br)cc1
→ -2%	-2%
- Cc1ccc(-c2[nH]c3c(c2-c2c(-n4cccc4)n(C)c(=O)[nH]c2=O)c(=O)[nH]c(=O)n3C)cc1
→ -13%	-16%
- CCc1ccc(CNC(=O)CCN2C(=O)COc3ccccc32)cc1
→ -6%	-3%
- O=c1cnnc(NCc2ccccc2)[nH]1
→ -10%	-4%
- C#CCOS(=O)OC1CCCCC1Oc1ccc(C(C)(C)C)cc1 (centres undefined)
→ -13%	-15%
- COc1ccc(CCNC(=O)NCc2noc3ccc(C)cc23)c(OC)c1
→ -11%	-7%
